From PubChem
UUG fidelity: alters start codon recognition fidelity in yeast; AID 602363; S. cerevisiae UUG-firefly luciferase reporter, luminescence/redox ratio; 350,000 tested, 0.13% active; activity score, % at 18.7 µM;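 active = replicate mean at a twofold rise or more, about +100% in these data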;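 note: firefly luciferase made from a UUG start codon reports start codon fidelity; reporter light over untreated wells divided by growth signal over untreated wells; some hits fall short of that in this replicate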
eIF4H inh: inhibitors of RNA binding by human eIF4H; Q15056; eIF4H fluorescence polarization binding assay; inhibition, % at 35 µM; 290,000 tested, 0.94% active;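 active = 50% or more with normal probe brightness, or confirmed in later tests; inconclusive = above 50% with abnormal brightness, or retests that disagree; inactive = below 50% or failed in later tests; about a fifth of its hits are not listed in these tables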;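 note: calls also rest on retests at 20 µM and on dose response follow-up; 0% = protein and probe with vehicle and 100% = probe without protein; strong numbers were not always called active; many hits fall short of the cut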
CSC inhib: cancer stem cell inhibition; inhibition, % at 7.5 µM; 300,000 tested, 1.1% active; cancer stem cell-like cells viability, luminescence;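 active = mean at 75% or more and at least half the replicates too; inconclusive = mean and replicates disagree; tested in HMLE shEcad cells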;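 note: 0% = median of negative and 100% = median of positive control wells; the first replicate is given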
MT1-MMP act inh: MT1-MMP (human) activation inhibition; 360,000 tested, 0.061% active; HT1080 RFP-PRO-GFP cells, GFP/RFP ratio fluorescence, overnight; percent of plate control window, DMSO zero; AID 651647; GFP/RFP ratio change, % at 20 µM;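 active = GFP/RFP ratio change of at least 30% with cell ATP level not reduced by more than half and red fluorescence within 50% of control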; note: strong numbers were not always called active
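Assay system – RFP-PRO-GFP reporter HT1080 cells · Compound dosing – single dose of 20 µM compound, 1% DMSO final · Incubation – overnight compound exposure at 37 °C · Measure – GFP/RFP fluorescence ratio · Benchmarks – DMSO wells and RFP-L50D-GFP cells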
Rce1 inhib: yeast Ras-converting enzyme inhibition. Q03530. yeast membranes, quenched prenylated peptide cleavage fluorescence. calls only. 290,000 tested, 0.27% active. AID 2563;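 active = fall in fluorescence gain of 50% or more versus controls, with final raw signal at or below 3038400; inconclusive = same 50% fall but final raw signal above 3038400; inactive = fall in fluorescence gain under 50%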;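 note: plate controls were neutral control wells for no effect and wells lacking membranes for full effect; tested at 10 µM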
Env fusion inh: HIV envelope-mediated fusion inhibition; HeLa-JRFL Env/CEM21 cell fusion, luciferase; inhibition, % at 12.3 µM; 360,000 tested, 1.1% active; AID 651610;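 active = mean replicate inhibition score of at least 50 and every replicate individually at or above 50; inconclusive = only one of the two criteria met; inactive = mean below 50 and not all replicates reaching 50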;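 note: 0% = plate neutral controls and 100% = maraviroc near 300 nM; one replicate is shown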
PABP FP inh: PABP-poly(A) binding inhibition | inhibition, % at 35 µM | 290,000 tested, 1% active | PABP-poly(A) RNA binding, fluorescence polarization | P11940;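 active = 50% or more with normal probe brightness, or confirmed in later tests; inconclusive = above 50% with abnormal brightness, or retests that disagree; inactive = below 50% or failed in later tests; about a fifth of its hits are not listed in these tables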;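 note: calls also rest on retests at 20 µM and on dose response follow-up; controls were probe without protein and protein plus probe with vehicle; some compounds called inactive have numbers as strong as hits; many hits fall short of the cut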
Target sequence (P11940 whole entry, looked up): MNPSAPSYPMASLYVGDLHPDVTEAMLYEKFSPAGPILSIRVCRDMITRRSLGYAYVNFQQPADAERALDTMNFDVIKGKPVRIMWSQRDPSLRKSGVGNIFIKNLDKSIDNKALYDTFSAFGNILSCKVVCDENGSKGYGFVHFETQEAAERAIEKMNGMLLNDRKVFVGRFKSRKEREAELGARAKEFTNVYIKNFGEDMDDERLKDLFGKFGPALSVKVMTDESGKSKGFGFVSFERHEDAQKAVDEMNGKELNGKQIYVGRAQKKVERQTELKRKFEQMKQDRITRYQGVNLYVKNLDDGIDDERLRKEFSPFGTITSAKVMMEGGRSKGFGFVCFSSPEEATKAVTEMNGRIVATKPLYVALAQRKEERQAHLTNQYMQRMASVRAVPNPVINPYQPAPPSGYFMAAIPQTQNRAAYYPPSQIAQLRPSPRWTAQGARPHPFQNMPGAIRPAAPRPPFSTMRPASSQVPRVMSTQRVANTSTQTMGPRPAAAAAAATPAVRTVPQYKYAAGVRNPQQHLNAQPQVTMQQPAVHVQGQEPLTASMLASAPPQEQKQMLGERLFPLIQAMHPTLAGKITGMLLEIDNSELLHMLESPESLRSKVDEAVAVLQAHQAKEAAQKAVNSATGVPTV
MT1-MMP act inh RFP: recorded beside MT1-MMP act inh, whose call it bears; RFP signal change, %; measured here: RFP expression control read;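 0 = vehicle wells; hits needed this value within 50% of zero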
An asterisk follows results filed as active; i = inactive; ? = inconclusive; / = no result given.

Field names – A = UUG fidelity; B = eIF4H inh; C = CSC inhib; D = MT1-MMP act inh; E = MT1-MMP act inh RFP; F = Rce1 inhib; G = Env fusion inh; H = PABP FP inh
[1] CCC(=O)NC(c1ccc(C)cc1)c1ccc2cccnc2c1O (configuration not stated)
  A: -20 | B: 16 | C: -2 | D: 7 | E: -9 | F: i | G: -23 | H: -4
[2] Nc1nc(-c2ccccn2)nc(N)c1Cc1ccccc1F
  A: / | B: 3 | C: -13 | D: 4 | E: -5 | F: i | G: -6 | H: 30
[3] CCCCN(C(=O)COc1ccc(C)cc1OC)c1c(N)n(CCC)c(=O)[nH]c1=O
  A: -2 | B: -4 | C: -1 | D: 2 | E: 6 | F: i | G: -12 | H: -3
[4] NS(=O)(=O)c1cccc(NC(=O)COC(=O)CN2C(=O)C3CC=CCC3C2=O)c1 (configuration not stated)
  A: -9 | B: -20 | C: 6 | D: 5 | E: 7 | F: i | G: 11 | H: 3
[5] CSCCC(NC(=O)c1ccccc1Cl)C(=O)NCc1ccncc1 (configuration not stated)
  A: 4 | B: / | C: -2 | D: 3 | E: 4 | F: / | G: -5 | H: /
[6] Cc1cc(=O)oc2c(C)c(OC(C)C(=O)NCCN3CCOCC3)ccc12 (configuration not stated)
  A: / | B: 0 | C: 4 | D: 0 | E: 3 | F: i | G: -5 | H: -5
[7] COCC(=O)N1CCC(n2nccc2NC(=O)c2ccccc2OC)CC1
  A: -15 | B: -6 | C: 2 | D: 0 | E: 0 | F: / | G: -9 | H: -6
[8] COc1ccc(-n2c(SCC(N)=O)nc3sc4c(c3c2=O)CCC4)cc1
  A: -11 | B: 4 | C: 5 | D: -3 | E: 1 | F: i | G: -19 | H: 8
[9] Cc1cnc(C(=O)NCCc2ccc(C(F)(F)F)cc2)cn1
  A: / | B: 3 | C: -16 | D: 1 | E: 0 | F: i | G: 3 | H: -2
[10] Cc1ccc(O)c(C(=O)c2cnc3onc(-c4ccc(F)cc4)c3c2)c1
  A: / | B: 4 | C: 1 | D: 0 | E: 0 | F: i | G: 19 | H: -5
[11] COc1ccc(NS(=O)(=O)c2cc(NC(=O)c3cnccn3)ccc2OC)cc1Br
  A: 3 | B: -4 | C: / | D: 1 | E: 0 | F: i | G: -7 | H: 0
[12] O=C(CCN1CCC(c2cccs2)=N1)c1cccs1
  A: -14 | B: -9 | C: -4 | D: -7 | E: 0 | F: i | G: -27 | H: -3
[13] O=C(NC(NC1CCS(=O)(=O)C1)C(=O)c1cccs1)c1ccccc1 (configuration not stated)
  A: / | B: -5 | C: -10 | D: / | E: / | F: i | G: / | H: 5
[14] CC1CN(C(=O)c2ccc(COc3ccc4ccccc4c3)o2)CC(C)O1 (configuration not stated)
  A: / | B: -5 | C: 0 | D: -1 | E: -1 | F: i | G: -7 | H: -6
[15] O=C(c1ccc(S(=O)(=O)Cc2cc(F)ccc2F)c([N+](=O)[O-])c1)N1CCCC1
  A: -21 | B: 0 | C: 0 | D: 4 | E: -5 | F: i | G: 30 | H: 5
[16] CCOC(=O)/C(C#N)=C(\N)C(C)C(=O)Nc1ccccn1 (configuration not stated)
  A: -3 | B: 8 | C: -5 | D: 5 | E: 1 | F: i | G: / | H: -3
[17] O=S(=O)(NCC1CCCO1)c1ccc(NS(=O)(=O)c2ccc(F)cc2)cc1 (configuration not stated)
  A: -12 | B: -4 | C: 2 | D: 2 | E: -2 | F: i | G: -5 | H: 7
[18] CCOc1ccc(-n2c(=O)cc(N3CCN(c4ccc(F)cc4)CC3)[nH]c2=O)cc1
  A: 1 | B: -6 | C: 1 | D: 11 | E: 1 | F: i | G: 1 | H: 3
[19] O=C(Nc1nc(-c2ccc(F)cc2)cs1)c1cnccn1
  A: / | B: 2 | C: 19 | D: 10 | E: 8 | F: i | G: -39 | H: -3
[20] Cc1ccc2nc(-c3ccccc3O)c(Nc3ccc4c(c3)OCCO4)n2c1
  A: / | B: -4 | C: -3 | D: 4 | E: 4 | F: i | G: / | H: 0
[21] CC1CCCCC1NC(=O)CN(C)S(=O)(=O)c1ccc2c(c1)c(=O)n(C)c(=O)n2C (configuration not stated)
  A: -29 | B: -5 | C: -1 | D: 0 | E: 4 | F: i | G: 7 | H: -5
[22] c1coc(CNc2c3c(nc4ncnn24)CCC3)c1
  A: / | B: 0 | C: -10 | D: -1 | E: 4 | F: i | G: -86 | H: -5
[23] COCCNS(=O)(=O)c1cccn1-c1ncc(C(F)(F)F)cc1Cl
  A: -7 | B: -2 | C: -12 | D: 6 | E: 3 | F: i | G: -13 | H: 5
[24] COc1ccc(CCNS(=O)(=O)c2ccc3c(c2)OCCO3)cc1OC
  A: / | B: 4 | C: -2 | D: -1 | E: -4 | F: i | G: 9 | H: -2
[25] Cc1ccc(C)c(N2CCN(C(=O)CCc3nc(-c4ccccc4Cl)no3)CC2)c1
  A: -10 | B: / | C: / | D: 4 | E: 2 | F: / | G: 42 | H: /
[26] COc1cccc(CC(=O)OCC(=O)Nc2nnc(-c3ccccc3)o2)c1
  A: -25 | B: / | C: / | D: 5 | E: 4 | F: i | G: -37 | H: /
[27] Cc1ccccc1N1C(=O)C(Cl)=C(N2CCOCC2)C1=O
  A: -16 | B: -3 | C: 13 | D: 1 | E: -2 | F: i | G: -1 | H: 4
[28] Cc1noc(N)c1C1(O)C(=O)Nc2c(Cl)cc(Cl)cc21 (configuration not stated)
  A: / | B: -4 | C: 2 | D: 0 | E: 4 | F: i | G: -9 | H: 3
[29] CCOc1ccccc1NC(=O)CN1CCCCCC1
  A: -6 | B: 2 | C: -12 | D: -2 | E: 1 | F: i | G: 8 | H: 2
[30] COc1ccc(CCN2C(=S)NC3CC2(C)Oc2ccc([N+](=O)[O-])cc23)cc1OC (configuration not stated)
  A: -37 | B: -9 | C: -5 | D: 7 | E: -12 | F: i | G: 59* | H: -4
[31] CC(C)CC(=O)c1c[nH]c(C(=O)NCc2cccs2)c1
  A: -8 | B: -5 | C: -1 | D: -7 | E: -3 | F: i | G: -1 | H: -1
[32] Cc1ccc(CNC(=O)c2cc3cc(Br)ccc3oc2=N)cc1
  A: -12 | B: 11 | C: -5 | D: -3 | E: 6 | F: i | G: -1 | H: -2
[33] O=S(=O)(Nc1nc2ccccc2nc1-[n+]1ccccc1)c1ccc(Cl)cc1
  A: 7 | B: ? | C: -6 | D: -2 | E: 0 | F: i | G: 0 | H: -12
[34] O=[N+]([O-])c1c(Nc2ccccc2O)cc(N2CCOCC2)c2nonc12
  A: -18 | B: 5 | C: 3 | D: -9 | E: -10 | F: i | G: 10 | H: 3
[35] CC(=O)c1ccc(N2C(=NC(=O)CCc3ccccc3)SC3CS(=O)(=O)CC32)cc1 (configuration not stated)
  A: -9 | B: -3 | C: -20 | D: 1 | E: 0 | F: i | G: 3 | H: -4
[36] Nc1nc(SCC(=O)c2cccc([N+](=O)[O-])c2)n[nH]1
  A: / | B: -8 | C: -12 | D: -1 | E: 0 | F: i | G: 22 | H: -9
[37] COC(=O)c1ccc(C(=O)NC2CCCc3c2cnn3-c2ccc(C)c(C)c2)cc1 (configuration not stated)
  A: -19 | B: 0 | C: -23 | D: 9 | E: -18 | F: i | G: 72* | H: -12
[38] COc1ccc(NC2CCCN(Cc3cccc4cnccc34)C2)cc1OC (configuration not stated)
  A: -7 | B: -5 | C: -16 | D: 1 | E: -2 | F: i | G: 23 | H: 16
[39] CS(=O)(=O)N(CC(=O)Nc1ccccc1C(=O)NCc1ccco1)c1ccccc1F
  A: / | B: -1 | C: -9 | D: 2 | E: 5 | F: i | G: -11 | H: -4
[40] Cc1ccc([N+](=O)[O-])cc1NC(=O)CCc1ccccc1
  A: -15 | B: 0 | C: / | D: -1 | E: 0 | F: i | G: 1 | H: -3
[41] Cn1c(=O)c2c(nc(CN3CCN(c4ccc(F)cc4)CC3)n2CCN2CCOCC2)n(C)c1=O
  A: 24 | B: -7 | C: 1 | D: -5 | E: 4 | F: i | G: 7 | H: -2
[42] COC(=O)c1nc(C(=O)OC)c(C(=O)OC)nc1C(=O)OC
  A: -14 | B: -8 | C: -5 | D: -9 | E: 3 | F: i | G: / | H: -7
[43] CCc1nc(SCc2ccc(C(=O)OC)o2)n[nH]1
  A: -38 | B: -7 | C: -7 | D: 0 | E: 0 | F: i | G: 5 | H: -10
[44] CCCCNC(=O)C1(C)CCN1C(=O)c1cc(C)n(C(C)(C)C)n1 (configuration not stated)
  A: 20 | B: / | C: / | D: 3 | E: -3 | F: / | G: -1 | H: /
[45] O=S(=O)(NCCc1c[nH]c2ccccc12)c1ccccc1
  A: 3 | B: -7 | C: -2 | D: 2 | E: 2 | F: i | G: -2 | H: -4
[46] CC1(C)Oc2ccc3ccc(=O)oc3c2/C(=C/Nc2ccccn2)C1=O
  A: -3 | B: -8 | C: 13 | D: -2 | E: -10 | F: i | G: / | H: -5
[47] S=C(NCc1ccco1)Nc1ccc(Cl)cc1
  A: -21 | B: 3 | C: 18 | D: 6 | E: 7 | F: i | G: / | H: -4
[48] CC1(C)OC(=O)C(=NNc2ccc(O)cc2)C(=O)O1
  A: / | B: -11 | C: -4 | D: 9 | E: -21 | F: / | G: / | H: -1
[49] Cc1ccc(Cn2c(C3CCCN3c3nc(-c4cc(Cl)c(N)c(Cl)c4)cs3)nc3cc(C(=O)NCCCO)ccc32)cc1 (configuration not stated)
  A: -17 | B: / | C: -20 | D: -5 | E: 2 | F: i | G: -9 | H: /
[50] Cc1ccc(S(=O)(=O)N2CCCCC2CCNC(=O)C(=O)Nc2ccccc2F)cc1 (configuration not stated)
  A: -17 | B: / | C: 39 | D: -8 | E: -14 | F: i | G: 14 | H: /
[51] Cc1cc(C)c2c(CN3CCOCC3)cc(=O)oc2c1
  A: / | B: -4 | C: 0 | D: 0 | E: -2 | F: i | G: 1 | H: 8
[52] O=C(Nc1ccc(CCC(=O)N2CCCC2)cc1)c1ncn[nH]1
  A: 9 | B: -1 | C: 10 | D: 4 | E: -1 | F: i | G: -32 | H: -5

Among those listed so far, these have two or more sulfur atoms:
Field names – A = UUG fidelity; B = eIF4H inh; C = CSC inhib; D = MT1-MMP act inh; E = MT1-MMP act inh RFP; F = Rce1 inhib; G = Env fusion inh; H = PABP FP inh
[8] COc1ccc(-n2c(SCC(N)=O)nc3sc4c(c3c2=O)CCC4)cc1
  A: -11 | B: 4 | C: 5 | D: -3 | E: 1 | F: i | G: -19 | H: 8
[12] O=C(CCN1CCC(c2cccs2)=N1)c1cccs1
  A: -14 | B: -9 | C: -4 | D: -7 | E: 0 | F: i | G: -27 | H: -3
[13] O=C(NC(NC1CCS(=O)(=O)C1)C(=O)c1cccs1)c1ccccc1 (configuration not stated)
  A: / | B: -5 | C: -10 | D: / | E: / | F: i | G: / | H: 5
[17] O=S(=O)(NCC1CCCO1)c1ccc(NS(=O)(=O)c2ccc(F)cc2)cc1 (configuration not stated)
  A: -12 | B: -4 | C: 2 | D: 2 | E: -2 | F: i | G: -5 | H: 7
[35] CC(=O)c1ccc(N2C(=NC(=O)CCc3ccccc3)SC3CS(=O)(=O)CC32)cc1 (configuration not stated)
  A: -9 | B: -3 | C: -20 | D: 1 | E: 0 | F: i | G: 3 | H: -4

Entries listed above shown as hits in Env fusion inh.
item	SMILES	UUG fidelity	MT1-MMP act inh	MT1-MMP act inh RFP	Rce1 inhib	Env fusion inh
30	COc1ccc(CCN2C(=S)NC3CC2(C)Oc2ccc([N+](=O)[O-])cc23)cc1OC (configuration not stated)	-37	7	-12	i	59*
37	COC(=O)c1ccc(C(=O)NC2CCCc3c2cnn3-c2ccc(C)c(C)c2)cc1 (configuration not stated)	-19	9	-18	i	72*

These rows are one share of the data. The share of hits here may be higher or lower than overall.
